Shh pathway inh = Sonic Hedgehog pathway inhibition; actives 2.1% (n = 22,000); Shh-LIGHT2 Gli-luciferase reporter, 30 h; inhibition, % (concentration not given with the values);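 active = replicate mean of 65% or more; inconclusive = mean lower but half the replicates past it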;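 note: pathway switched on by Shh-conditioned medium diluted 1 in 25 in low serum; 100 nL library stock added to about 40 µL; 0% = median of neutral wells and 100% = positive control level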
YB-1 expr inh = YB-1 expression inhibition; actives 0.37% (n = 30,000); U2OS, qRT-PCR YB-1 vs CDIP delta delta Cp, 16 h; hits give high values; zero = DMSO, each unit about twofold; AID 434959; delta delta Cp (YB-1 minus CDIP) (concentration not given with the values);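 active = delta delta Cp rounded down to an integer at or above 3, about 3 SD of DMSO wells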;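 note: higher means less YB-1 transcript or more CDIP transcript relative to DMSO; stock transfer was 100 nL into about 100 µL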
MITF inh = blocks MITF activity | TRPM1 promoter luciferase, luminescence, 24 h | inhibition, % (concentration not given with the values) | actives 0.28% (n = 37,000);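 active = most replicates at 85% or more, or half of them and the mean; inconclusive = half reach 85% but not the mean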;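 note: human melanocyte line stably carrying TRPM1 promoter luciferase reporter; 0% = vehicle wells and 100% = a positive control; the first replicate is given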
PD-1 reverse act = activators reversing PD-1 mediated T-cell inhibition; primary human CD4 T cells, PD-L1 beads, CellTiter-Glo 96 h; activation, % (no concentration beside the values); 29,000 tested, under 10 active;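 active = replicate mean of 50% or more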;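 note: 0% = median vehicle wells and 100% = positive control; 100 nL library stock added to about 50 µL; numbers are from one replicate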
* = called active by the depositor; ? = inconclusive; · = no result given.

SMILES	Shh pathway inh	YB-1 expr inh	MITF inh	PD-1 reverse act
CC(=O)Oc1ccc(C(=O)c2ccccc2)c(OC(C)=O)c1	-7.2	-0.351	-39.9	-1.4
C[C@H]1CN([C@@H](C)CO)C(=O)c2cc(NC(=O)CCN3CCOCC3)ccc2O[C@H]1CN(C)C(=O)Nc1ccc2c(c1)OCO2	·	-0.36	-5.1	6.6
COc1ccc(NC(=O)N(C)C[C@H]2Oc3ccc(NC(=O)Nc4ccc5c(c4)OCO5)cc3C(=O)N([C@H](C)CO)C[C@@H]2C)cc1	·	-0.15	1.0	1.0
C[C@H](CO)N1C[C@H](C)[C@@H](CN(C)C(=O)Nc2ccc3c(c2)OCO3)Oc2ccc(NC(=O)Cc3cn(C)c4ccccc34)cc2C1=O	·	0.368	5.2	-0.6
C[C@@H]1CN([C@H](C)CO)C(=O)c2cccc(NC(=O)c3ccncc3)c2O[C@H]1CN(C)C	-23.2	0.3	-3.6	-0.8
C[C@@H]1CN([C@@H](C)CO)C(=O)Cc2cc(NC(=O)c3ccncc3)ccc2O[C@@H]1CN(C)C(=O)Nc1ccccc1	·	0.117	-10.0	-1.1
O=C(N[C@H](COC(=O)[C@H](Cc1ccccc1)NC(=O)c1ccccc1)Cc1ccccc1)c1ccccc1	-9.3	0.55	-2.2	-1.1
COc1ccc(Cl)cc1NC(=O)C(C)N(c1ccc(C)cc1)S(C)(=O)=O (configuration not stated)	·	·	6.6	0.7
CNc1[nH]cnc(=S)c1N	-21.7	0.178	6.9	0.2
Cc1noc(C)c1S(=O)(=O)Nc1ccc2c(c1)C(=O)N([C@@H](C)CO)C[C@@H](C)[C@@H](CN(C)Cc1ccccc1)O2	25.1	0.453	5.1	-0.4
CC(C)c1ccc(NCC(O)CSc2ccccc2)cc1 (configuration not stated)	-36.0	-0.399	-25.2	-0.6
COC(=O)c1c(NC(=S)Nc2ccn(C)n2)sc(C)c1-c1ccccc1	·	·	-28.9	-1.3
C[C@H]1CN([C@@H](C)CO)C(=O)c2cccc(NC(=O)Nc3cccc4ccccc34)c2O[C@H]1CN(C)C(=O)Nc1ccc(C(F)(F)F)cc1	21.0	0.00569	46.6	-6.1
COc1ccc(NC(=O)Nc2ccc3c(c2)C(=O)N([C@@H](C)CO)C[C@H](C)[C@@H](CN(C)Cc2ccc(Oc4ccccc4)cc2)O3)cc1	3.3	0.612	-9.8	-0.8
CCOc1cc(S(=O)(=O)NCc2cccnc2)ccc1Cl	·	·	16.7	1.4
Cc1ccc(S(=O)(=O)Nc2ccc3c(c2)C(=O)N([C@@H](C)CO)C[C@@H](C)[C@@H](CN(C)C(=O)NC(C)C)O3)cc1	·	0.13	-5.4	0.9
C[C@@H]1CN([C@H](C)CO)C(=O)c2cccc(NS(=O)(=O)c3ccc(F)cc3)c2O[C@H]1CN(C)S(=O)(=O)c1ccc(Cl)cc1	2.5	0.123	-4.3	·
O=C(COc1ccccc1)Nc1ccc2nn(-c3ccc(Cl)cc3)nc2c1	·	·	-70.4	1.8
COc1cc(O)cc(/C=C/c2ccccc2)c1	-23.1	-0.0617	-10.3	·
COc1ccc(NC(=O)Nc2cccc3c2O[C@@H](CN(C)S(=O)(=O)c2ccccc2)[C@@H](C)CN([C@@H](C)CO)C3=O)cc1	9.6	0.341	-47.3	-1.0
COc1ccccc1Nc1nc(N)nc(CSc2ncccn2)n1	·	·	-93.1	1.7
Cc1ccc(S(=O)(=O)Nc2ccc3c(c2)CC(=O)N([C@@H](C)CO)C[C@H](C)[C@H](CN(C)Cc2ccc(C(F)(F)F)cc2)O3)cc1	29.4	0.45	-4.3	0.9
C[C@@H]1CN([C@H](C)CO)C(=O)Cc2cc(NS(=O)(=O)c3ccc(F)cc3)ccc2O[C@@H]1CN(C)Cc1ccc(C(F)(F)F)cc1	?	0.342	2.7	-6.1
COc1cc(NC(=O)CCN2CCOCC2)cc(OC)c1	·	·	-7.2	0.9
C[C@@H]1CN([C@H](C)CO)C(=O)Cc2cc(NS(=O)(=O)c3ccc(F)cc3)ccc2O[C@@H]1CN(C)S(=O)(=O)c1ccc(F)cc1	-4.2	-0.0534	-14.7	-1.0
C[C@@H]1CN([C@@H](C)CO)C(=O)c2cccc(NC(=O)Nc3ccccc3)c2O[C@@H]1CN(C)C	42.2	-0.137	-3.4	2.0
O=C(C/C(=C1/Cc2ccccc2C1=O)c1ccccc1)c1ccccc1	-7.3	-0.561	9.1	-6.5
Cc1cc(NC(=O)Cn2nc([N+](=O)[O-])cc2C)ccc1Br	·	·	23.8	-2.4
Cc1ccc(S(=O)(=O)N2CCN(C(=O)CSc3nnc4sc5ccccc5n34)CC2)cc1	·	·	27.0	-1.2
COc1ccc(S(=O)(=O)Nc2ccc3c(c2)C(=O)N([C@H](C)CO)C[C@@H](C)[C@H](CN(C)S(=O)(=O)c2ccccc2)O3)cc1	·	-0.25	-12.0	-1.3
C[C@@H]1CN([C@@H](C)CO)C(=O)c2cccc(NC(=O)c3ccncc3)c2O[C@H]1CN(C)S(=O)(=O)c1cn(C)cn1	-13.8	0.24	2.4	0.2
C[C@@H]1CN([C@@H](C)CO)C(=O)Cc2cc(NC(=O)Cn3cnnn3)ccc2O[C@@H]1CN(C)C(=O)Nc1ccc2c(c1)OCO2	-9.8	-0.354	-4.5	·
C[C@@H]1CCCCO[C@@H](CN(C)S(C)(=O)=O)[C@@H](C)CN([C@H](C)CO)C(=O)c2cc(N(C)C)ccc2O1	·	-0.573	11.6	·
Cn1c(O)c(C=Nc2cccc(CO)c2)c2ccccc21	9.6	-0.262	-58.4	0.6
N#CSCC(=O)C12CC3CC(CC(C3)C1)C2	·	-0.689	46.8	-7.1
C[C@H]1CN([C@@H](C)CO)C(=O)Cc2cc(NC(=O)Nc3ccc4c(c3)OCO4)ccc2O[C@@H]1CN(C)Cc1ccncc1	9.8	0.0892	-12.3	·
COc1cc(OC)c(C2=NOC(C(=O)Nc3sc4c(c3C#N)CCCC4)C2)cc1Cl (configuration not stated)	·	·	-8.4	0.5
O=[N+]([O-])c1ccccc1NCCNS(=O)(=O)c1ccc(Cl)c(Cl)c1	·	·	-5.2	0.3
C[C@H](CO)N1C[C@H](C)[C@@H](CN(C)CC2CCCCC2)Oc2c(NC(=O)c3ccc(-c4nccs4)cc3)cccc2C1=O	8.2	-0.233	50.8	-3.2
C=CCc1ccc(O[C@@H]2O[C@H](CO[C@@H]3O[C@@H](C)[C@H](O)[C@@H](O)[C@H]3O)[C@@H](O)[C@H](O)[C@H]2O)c(O)c1	-5.4	-0.556	-8.3	1.0
Cc1cc(C(=O)Nc2cccc3c2O[C@H](CN(C)C(=O)NC(C)C)[C@H](C)CN([C@H](C)CO)C3=O)n(C)n1	40.3	-0.171	-6.7	-1.1
C[C@H]1CN([C@@H](C)CO)C(=O)c2cc(NC(=O)Nc3ccccc3)ccc2O[C@@H]1CN(C)Cc1ccncc1	·	0.0628	-5.1	-0.6
C[C@H](CO)N1C[C@H](C)[C@@H](CN(C)S(C)(=O)=O)Oc2ccc(NC(=O)Nc3ccc(C(F)(F)F)cc3)cc2C1=O	1.4	0.0145	5.3	·
CCOC(=O)c1cc(Sc2ccccc2NC(=O)c2ccccc2)cc(C(=O)OCC)n1	13.3	0.511	0.5	1.3
CCCN(CCc1ccccc1)C1CCc2c(O)cccc2C1 (configuration not stated)	34.8	-0.0533	15.5	·
Cc1noc(C)c1NC(=O)Nc1cccc2c1O[C@@H](CN(C)Cc1ccc3c(c1)OCO3)[C@H](C)CN([C@@H](C)CO)C2=O	-23.0	0.0592	3.9	0.0
C[C@@H]1CN([C@@H](C)CO)C(=O)c2cc(NC(=O)Nc3ccccc3)ccc2O[C@@H]1CN(C)Cc1ccc2c(c1)OCO2	16.8	0.103	8.6	0.4
Cc1ccc(NC(=O)Cn2nc([N+](=O)[O-])c(Br)c2C)cc1C	·	·	9.1	0.8
COc1ccc(S(=O)(=O)Nc2cccc3c2O[C@@H](CN(C)C(=O)Nc2ccc(C(F)(F)F)cc2)[C@@H](C)CN([C@H](C)CO)C3=O)cc1	-5.1	-0.0578	31.0	·
C[C@@H]1CN([C@@H](C)CO)C(=O)c2cccc(N(C)C)c2O[C@H]1CN(C)S(=O)(=O)c1ccccc1	13.1	-0.171	-7.3	2.3

Part of the list above in order of molar mass, largest number first.
SMILES	Shh pathway inh	YB-1 expr inh	MITF inh	PD-1 reverse act
C[C@@H]1CN([C@@H](C)CO)C(=O)Cc2cc(NC(=O)Cn3cnnn3)ccc2O[C@@H]1CN(C)C(=O)Nc1ccc2c(c1)OCO2	-9.8	-0.354	-4.5	·
C[C@H](CO)N1C[C@H](C)[C@@H](CN(C)CC2CCCCC2)Oc2c(NC(=O)c3ccc(-c4nccs4)cc3)cccc2C1=O	8.2	-0.233	50.8	-3.2
Cc1noc(C)c1NC(=O)Nc1cccc2c1O[C@@H](CN(C)Cc1ccc3c(c1)OCO3)[C@H](C)CN([C@@H](C)CO)C2=O	-23.0	0.0592	3.9	0.0
C[C@H]1CN([C@@H](C)CO)C(=O)Cc2cc(NC(=O)Nc3ccc4c(c3)OCO4)ccc2O[C@@H]1CN(C)Cc1ccncc1	9.8	0.0892	-12.3	·
C[C@H](CO)N1C[C@H](C)[C@@H](CN(C)S(C)(=O)=O)Oc2ccc(NC(=O)Nc3ccc(C(F)(F)F)cc3)cc2C1=O	1.4	0.0145	5.3	·
C[C@H]1CN([C@@H](C)CO)C(=O)c2cc(NC(=O)Nc3ccccc3)ccc2O[C@@H]1CN(C)Cc1ccncc1	·	0.0628	-5.1	-0.6
Cc1cc(C(=O)Nc2cccc3c2O[C@H](CN(C)C(=O)NC(C)C)[C@H](C)CN([C@H](C)CO)C3=O)n(C)n1	40.3	-0.171	-6.7	-1.1
C[C@@H]1CCCCO[C@@H](CN(C)S(C)(=O)=O)[C@@H](C)CN([C@H](C)CO)C(=O)c2cc(N(C)C)ccc2O1	·	-0.573	11.6	·
C[C@@H]1CN([C@@H](C)CO)C(=O)c2cccc(N(C)C)c2O[C@H]1CN(C)S(=O)(=O)c1ccccc1	13.1	-0.171	-7.3	2.3
C=CCc1ccc(O[C@@H]2O[C@H](CO[C@@H]3O[C@@H](C)[C@H](O)[C@@H](O)[C@H]3O)[C@@H](O)[C@H](O)[C@H]2O)c(O)c1	-5.4	-0.556	-8.3	1.0
CCOC(=O)c1cc(Sc2ccccc2NC(=O)c2ccccc2)cc(C(=O)OCC)n1	13.3	0.511	0.5	1.3
COc1cc(OC)c(C2=NOC(C(=O)Nc3sc4c(c3C#N)CCCC4)C2)cc1Cl (configuration not stated)	·	·	-8.4	0.5
O=[N+]([O-])c1ccccc1NCCNS(=O)(=O)c1ccc(Cl)c(Cl)c1	·	·	-5.2	0.3
Cc1ccc(NC(=O)Cn2nc([N+](=O)[O-])c(Br)c2C)cc1C	·	·	9.1	0.8
Cn1c(O)c(C=Nc2cccc(CO)c2)c2ccccc21	9.6	-0.262	-58.4	0.6
N#CSCC(=O)C12CC3CC(CC(C3)C1)C2	·	-0.689	46.8	-7.1

The listing continues:
SMILES	Shh pathway inh	YB-1 expr inh	MITF inh	PD-1 reverse act
COc1ccc(NC(=O)Nc2cccc3c2O[C@H](CN(C)C(=O)Nc2ccc4c(c2)OCO4)[C@H](C)CN([C@H](C)CO)C3=O)cc1	1.1	-0.882	-0.6	1.1
Cc1cnn(CCCNC(=O)NC23CC4CC(CC(C4)C2)C3)c1	·	·	-22.2	0.3
C[C@@H]1CCC2C(C)(C)[C@H](O)CC[C@]2(C)[C@@]12Cc1c(O)cc3c(c1O2)CNC3=O (some centres not stated)	9.0	0.478	5.4	1.1
C[C@@H]1CN([C@H](C)CO)C(=O)c2cc(NS(=O)(=O)c3ccc(F)cc3)ccc2O[C@H]1CN(C)C(=O)Nc1cccc2ccccc12	-17.0	-0.156	2.4	-0.2
O=C(Oc1cc(OC(=O)c2ccccc2)c2c(c1)O[C@H](c1ccc(OC(=O)c3ccccc3)c(OC(=O)c3ccccc3)c1)[C@@H](OC(=O)c1ccccc1)C2)c1ccccc1	-20.4	0.0278	5.4	·
CC(O)Cn1cnc2c1c(=O)n(C)c(=O)n2C (configuration not stated)	-58.6	1.18	-6.3	0.7
Cc1sc2nc(SCC(=O)c3cccs3)n(Cc3ccco3)c(=O)c2c1C	·	·	-17.4	-2.5
CCOC(=O)c1sc(S(C)(=O)=O)c2c1CC(C)(C)C/C2=N/O	16.3	-0.14	16.7	-2.6
Cc1cccc(NC(=O)c2ccccc2NC(=O)COc2cccc([N+](=O)[O-])c2)c1C	·	·	-0.4	-8.2
C[C@@H]1CCCCO[C@H](CN(C)C(=O)CCC(F)(F)F)[C@@H](C)CN([C@H](C)CO)C(=O)c2cc(N(C)C)ccc2O1	-7.7	9.88*	-2.5	·

From PubChem

An excerpt (hit frequency here may not be typical).
